# Beta cell apopt: beta cell apoptosis inhibition; hit rate 0.8% among 300,000; INS-1E cytokine-induced death, ATP luminescence, 48 h; percent of positive-control rescue, neutral wells zero; protection from apoptosis, % (concentration not given with the values); AID 435005;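 active = all replicates at 75% or more, or half of them and the mean; inconclusive = half reach 75% but not the mean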;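 note: 0% = cytokine-treated negative control wells and 100% = positive control rescue; higher means more ATP so stronger rescue from cytokine killing; wells of about 40 µL received 100 nL stock; the first replicate is given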
# FGF22 binding: FGF22 (human) thermal shift binding. Q9HCT0. recombinant FGF22 thermal shift, SYPRO orange fluorescence; percent of sucrose octasulfate shift, DMSO zero. calls only at 9.99 µM. hit rate 1.5% among 340,000;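 active = melting point raised past a set limit in the mean and every replicate; inconclusive = no clear call; three in four hits are not shown here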
# rRNA inh HTS: inhibits bacterial ribosomal RNA function over humanized ribosomes. hit rate 1.6% among 350,000. E. coli WT GFP vs humanized-ribosome RFP mutants, fluorescence, 24 h; hits give low values; DMSO median 0, no signal -100. GFP signal change (wild-type ribosome), % (test concentration not listed);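 active = significant combined selectivity score with lowered wild-type GFP, culture density cut under 30%, mutant RFP and density less affected; inactive = any of these conditions unmet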; note: one replicate is shown; some compounds called inactive have numbers as strong as hits
# T cruzi repl: T. cruzi replication inhibition; T. cruzi beta-gal in NIH3T3, luminescence, 90 h; inhibition, % (test concentration not listed); hit rate 1.4% among 300,000; AID 1885;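 active = mean inhibition across valid replicates above about 55%, limit read from the data; inconclusive = mean below that limit but half or more replicates reach it; inactive = mean below it, under half of replicates reach it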;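 note: signal also drops with host cell toxicity which is not excluded here; 0% = plate median of DMSO wells and 100% = zero luminescence signal; higher percent means less beta-gal luminescence so fewer parasites; stock transfer was 50 nL into about 50 µL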
# Ecoli growth: blocks Escherichia coli growth. hit rate 0.21% among 330,000. AID 1053175. OD600, 23 h; hits give low values. OD600 absorbance (concentration not given with the values);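 active = OD600 absorbance below the run mean of sample wells minus 3.6 SD, in any replicate, cut at about 0.56 in these data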;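 note: stock transfer was 300 nL into about 60 µL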
# A1 inh: inhibitors of the anti-apoptotic protein A1, read as caspase activation; MEF A1-2A-BIM cells, Caspase-Glo 3/7 luminescence, 3 h; percent of clofoctol response, vehicle zero; caspase activation, % (no concentration beside the values); hit rate 0.066% among 330,000; AID 2462;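 active = over half of replicate activation scores above 10%, or exactly half above 10 with the replicate mean above 10; inconclusive = replicate mean below 10 yet half the replicates above 10; inactive = over half of replicates below 10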;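 note: wells of about 30 µL received 50 nL stock; many hits fall short of the cut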
# AF4-AF9 inh: MLL-AF4/AF9 protein interaction inhibition. AID 651704. inhibition, % at 10 µM. AlphaScreen, biotin-AF4 peptide binding to FLAG-AF9. hit rate 0.47% among 350,000;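 active = every replicate reaching a set inhibition limit, whatever the replicate mean, cut at about 25% in these data; inconclusive = mean inhibition reaches that limit but some replicates miss it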;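 note: 0% = plate neutral control median and 100% = total signal loss; the record names both 10 and 1 µM as test concentration; the first replicate is given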
# Target sequence (P42568 whole entry, looked up): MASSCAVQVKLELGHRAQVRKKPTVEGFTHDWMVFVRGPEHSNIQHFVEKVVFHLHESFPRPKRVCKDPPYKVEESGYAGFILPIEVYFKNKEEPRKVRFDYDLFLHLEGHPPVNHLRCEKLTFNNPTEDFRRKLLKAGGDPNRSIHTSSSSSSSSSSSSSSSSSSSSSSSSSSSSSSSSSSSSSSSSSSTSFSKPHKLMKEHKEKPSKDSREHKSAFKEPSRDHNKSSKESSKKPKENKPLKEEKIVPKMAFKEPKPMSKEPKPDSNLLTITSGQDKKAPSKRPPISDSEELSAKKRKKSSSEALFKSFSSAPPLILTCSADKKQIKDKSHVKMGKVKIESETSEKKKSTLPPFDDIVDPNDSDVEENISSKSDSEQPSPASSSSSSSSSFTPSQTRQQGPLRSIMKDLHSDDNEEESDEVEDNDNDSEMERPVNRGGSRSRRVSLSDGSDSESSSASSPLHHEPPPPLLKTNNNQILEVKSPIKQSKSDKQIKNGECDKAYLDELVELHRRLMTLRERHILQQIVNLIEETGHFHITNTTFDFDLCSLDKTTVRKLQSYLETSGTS
# UCH37 inh: human UCH37 deubiquitinating enzyme inhibition. Q9Y5K5. purified proteasome/UCH37, Ub-AMC cleavage fluorescence. inhibition, % (no concentration beside the values). hit rate 0.33% among 330,000. AID 588478;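 active = mean of two replicates above 20%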;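 note: 0% = compound-free wells with enzyme and 100% = wells lacking proteasome; stock transfer was 100 nL into about 20 µL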
# Target sequence (Q9Y5K5 whole entry, looked up): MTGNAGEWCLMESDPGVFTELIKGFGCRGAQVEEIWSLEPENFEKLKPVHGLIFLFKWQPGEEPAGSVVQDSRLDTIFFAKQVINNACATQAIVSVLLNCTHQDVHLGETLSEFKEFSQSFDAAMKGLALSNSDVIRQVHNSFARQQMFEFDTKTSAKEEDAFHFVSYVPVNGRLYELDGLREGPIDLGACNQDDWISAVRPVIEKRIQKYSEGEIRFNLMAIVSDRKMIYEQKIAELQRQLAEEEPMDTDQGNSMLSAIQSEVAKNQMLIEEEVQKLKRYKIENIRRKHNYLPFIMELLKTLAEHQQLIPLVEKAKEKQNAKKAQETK
#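 system = Proteasome-associated human UCH37 deubiquitinase | amount = 0.15 nM proteasome as dispensed | medium = pH 7.4 Tris-HCl (50 mM) with ovalbumin, ATP-MgCl2, DTT | incubation = 30 min preincubation with enzyme, 25 min cleavage at room temperature | detection = AMC fluorescence 355/460 nm | read-out basis = percent inhibition | controls = no-proteasome and no-compound wells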
# rRNA inh HTS OD600: further read-out of rRNA inh HTS, marked with its call; OD600 change, %; measured here: OD600 growth;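 optical density of the mix in the first replicate; 0 = DMSO median and -100 = no signal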
# rRNA inh HTS RFP: also measured in rRNA inh HTS; calls as there; RFP signal change, %; measured here: RFP humanized mutant strains;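 first replicate; 0 = DMSO median and -100 = no signal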
# Starred values were filed as active, the others as inactive; i = inactive; ? = inconclusive; . = not tested or not shown; + = active, no number. The list is partial; rates above refer to the full screens.
SMILES,Beta cell apopt,FGF22 binding,rRNA inh HTS,rRNA inh HTS OD600,rRNA inh HTS RFP,T cruzi repl,Ecoli growth,A1 inh,AF4-AF9 inh,UCH37 inh
COc1ccc(N2CCN(C(=O)CNC(=O)c3ccc4ccccc4c3)CC2)cc1,5,i,.,.,.,.,0.71,0.0,2.0,1.5
COCCNC(=O)C1(C)Oc2ccccc2NC1=O (centres undefined),-5,.,.,.,.,-7,0.74,0.3,.,3.0
COC(=O)[C@]1(Cc2ccccc2)N[C@H](CN(C)S(=O)(=O)c2ccc(C(F)(F)F)cc2)[C@@H]2C(=O)N(Cc3ccccc3)C(=O)[C@@H]21,7,i,13,12,-4.7,.,0.7,-0.2,-1.4,1.4
COc1cc(C(=O)OC(C)CN2CCN(C)CC2)cc(OC)c1OC (centres undefined),-4,.,.,.,.,-7,0.7,0.1,.,-0.5
COc1ccc(C(=O)NCC(=O)OCC(=O)N(C)c2ccccc2)cc1,-6,i,4,2,1.6,-4,0.67,1.0,-1.4,-0.1
CCOC(=O)C1=C(COC(=O)/C=C/c2cccc(F)c2)NC(=O)NC1C (centres undefined),4,i,13,11,0.4,.,0.67,0.2,-9.2,-1.8
CC(=O)c1cccc(NC(=O)C2CCCN(S(=O)(=O)c3cccc4nonc34)C2)c1 (centres undefined),2,i,-3,-8,-0.8,5,0.69,-0.4,1.2,5.3
O=C(NC1CC1)C1CCN(C2CCN(C(=O)CC3=CCCCC3)CC2)CC1,.,i,1,8,-1.4,8,0.68,-0.7,-1.0,-3.4
Cc1ccc(S(=O)(=O)Nc2cc(=O)[nH]c(SCC(=O)Nc3ccccc3C(F)(F)F)n2)cc1,-2,i,5,8,-1.5,13,0.66,0.4,-2.5,-0.5
COc1ccc(NS(=O)(=O)c2c(C)[nH]c(=O)[nH]c2=O)cc1OC,-3,i,5,10,-2.8,-4,0.67,0.8,3.9,-0.3
COc1cccc2c3c(c(C)nc12)CCN3c1ccccc1,.,i,7,-14,-14,32,0.7,0.4,-3.8,-18
NC(=O)C1CCCN1 (centres undefined),-7,i,16,10,-0.3,1,0.68,0.4,-0.4,1.6
O=S(=O)(Cc1ccc(Cl)cc1)CC(O)COCc1ccccc1 (centres undefined),-5,i,-8,-9,-3.3,0,0.66,0.2,-9.5,1.6
CCCCCCCCCCCCC(NC(C)=O)(C(=O)OCC)C(=O)OCC,-6,i,9,3,-1.2,30,0.66,0.6,-2.4,1.2
CC(C)CC(=O)Nc1ncc([N+](=O)[O-])s1,4,i,.,.,.,37,0.6,0.1,-1.4,8.6
O=C1NC(c2cccs2)Nc2sc3c(c21)CCCC3 (centres undefined),3,.,.,.,.,6,0.78,-5.1,.,-5.7
CCOC(=O)c1c(NC(=O)c2cc(C(C)C)on2)sc(C(C)=O)c1C,7,.,.,.,.,-15,0.72,0.0,.,-48
Cc1nc2ncnn2c(N2CCC(C(=O)NCC3CCCO3)CC2)c1Cc1ccccc1 (centres undefined),.,i,5,4,-6.2,.,0.7,-1.2,3.1,0.5
COc1cc(OC)cc(-c2nnc(NC(=O)c3ccc4c(c3)OCCO4)o2)c1,.,i,5,6,-2.4,-49,0.71,-0.5,4.5,1.8
CCCCN(C(=O)CCC(=O)O)C1CC(=O)N(c2ccc(OCCC)cc2)C1=O (centres undefined),-10,.,.,.,.,-16,0.75,0.4,.,-2.2
CCOC(=O)c1c(NC(C)=O)sc2c(OCC(O)CN(CC)CC)c(Br)ccc12 (centres undefined),27,i,-28,-47,9.8,48,0.66,-0.3,5.9,-19
COc1cccc2cc(-c3csc(CCn4nc(C)cc4C)n3)c(=O)oc12,-9,.,.,.,.,0,0.75,-0.9,.,-14
CN(CCO)c1ccc(C(C(=O)c2ccccc2)c2ccc(N(C)CCO)cc2)cc1,-5,i,16,14,-0.6,-4,0.71,0.1,.,15
O=C(Cc1c(F)cccc1Cl)Nc1ccccc1-c1ccccc1,1,i,7,10,-0.2,12,0.68,-0.7,-2.7,1.0
Cn1cccc1-c1cc(C(=O)N/N=C/C=C/c2ccccc2)[nH]n1,47,+,-47,-66,-9.7,-3,.,1.4,19,.
O=C(CN(Cc1ccccc1)C(=O)CSc1nnc(COc2ccccc2)o1)NC1CCCC1,4,.,.,.,.,-23,0.76,2.3,.,-1.0
CCN(CCNC(=O)C1CCCN(S(=O)(=O)CC)C1)c1ccccc1 (centres undefined),3,.,.,.,.,-2,0.73,-0.1,.,-2.9
O=C1c2cccnc2C(O)N1Cc1ccc(F)cc1 (centres undefined),-4,.,.,.,.,-24,0.67,0.0,.,1.5
COc1ccc(O)c(/C=N/NC(=O)CCC(=O)Nc2ccc(C)cc2)c1,28,i,7,8,0.1,-4,.,-0.6,-4.1,.
Cc1cc(C)cc(NC(=O)COc2ccc3c(C)c(Cc4ccccc4)c(=O)oc3c2)c1,5,.,.,.,.,12,0.74,0.2,.,-67
CCOCC(=O)Nc1cc(C(=O)NCCc2ccccc2)ccc1Cl,5,+,2,5,0.9,-8,0.64,1.1,-1.5,2.6
Fc1ccccc1N1CCN(c2nc(-c3cccs3)nc3ccccc23)CC1,11,i,12,13,0.9,21,0.75,0.2,0.6,-22
CC1(OC(=O)C2CCCC2)C(=O)C=C2C=C(c3ccsc3)N(CC3CC3)C=C2C1=O (centres undefined),-5,i,5,12,18,31,0.66,0.1,2.4,3.0
Cc1sc2ncnc(SCC(=O)Nc3cccc(S(N)(=O)=O)c3)c2c1C,-1,i,-38,-49,-16,.,0.65,-1.5,-14,2.7
Cc1ccccc1-n1sc2cc(F)ccc2c1=O,55,i,-48,-49,-14,.,0.65,-6.3,-12,2.4
O=C(Nc1cc(-c2nc3ccccc3s2)ccc1Cl)c1ccc2c(c1)OCO2,-1,i,6,7,5.8,-15,0.68,-0.8,-61,-14
CC(C)NC(=O)c1onc(CSc2ccc(Cl)cc2)c1C(=O)O,5,i,-16,-20,-7.3,-4,0.6,-1.0,-3.3,0.2
CCOC(=O)C(CC)Sc1nc(N)c(NC(=O)c2ccc(OC)c(OC)c2)c(=O)[nH]1 (centres undefined),1,i,-1,4,0.0,1,0.67,-0.6,-4.2,5.3
O=C(CSc1nc2ccccc2c(=O)n1CCCN1CCOCC1)Nc1ccc(F)c(Cl)c1,-2,i,-61,-80,-19,.,0.65,1.4,4.9,-1.3
Cc1cc(NC(=O)CSc2nnc(-c3ccoc3C)n2N)no1,-4,.,.,.,.,0,0.68,0.1,.,1.3
Fc1ccccc1CSc1nnc(-c2ccccc2)o1,.,.,.,.,.,-11,0.69,-0.6,.,4.3
O=[N+]([O-])c1ccccc1N/N=C/c1cccc(O)c1O,20,i,7,8,-9.1,-24,.,-8.0,0.6,.
COC(=O)c1ccc(-n2c(C)cc(C(=O)CSc3cccc[n+]3[O-])c2C)cc1,-1,i,-32,-35,25,5,0.71,0.0,6.9,4.0
C(=N\Nc1ccc2ccccc2n1)/c1ccc2c(c1)OCO2,4,.,-22*,17*,-0.6*,2,.,-7.6,?,.
CCc1ccc(CCC(=O)Nc2ccc(OC)cc2)o1,-4,.,.,.,.,2,0.73,0.8,.,3.3
Cn1c(Cc2ccccc2)nnc1SCC(=O)c1cccs1,-6,.,.,.,.,-12,0.67,-0.9,.,4.9
c1ccc(CCNCCCOc2cccc3ccccc23)cc1,-12,i,-6,-17,0.1,?,0.62,-0.1,7.6,2.8
CCCCN(C(=O)c1ccc(-c2ccc([N+](=O)[O-])cc2)o1)c1c(N)n(CCCC)c(=O)[nH]c1=O,3,i,10,11,-0.1,-2,.,0.4,-0.2,.
CC12CCC(C(=O)N(CCC#N)CCC#N)(CC1=O)C2(C)C (centres undefined),-3,i,19,21,-3.8,-8,0.74,-0.6,-4.0,5.6
COc1ccc(-c2noc(-c3cc4ccccc4oc3=O)n2)cc1,1,.,.,.,.,1,0.75,0.3,.,-3.9
# Carrying on:
SMILES,Beta cell apopt,FGF22 binding,rRNA inh HTS,rRNA inh HTS OD600,rRNA inh HTS RFP,T cruzi repl,Ecoli growth,A1 inh,AF4-AF9 inh,UCH37 inh
COc1ccc(NC(=O)COC(=O)C2CCC2)cc1Cl,-3,i,13,9,-1.4,2,0.69,-0.2,-2.5,2.4
Cc1cccc(N(CC(=O)NC2CCCCC2)C(=O)CCCC(=O)Nc2ccccn2)c1,4,.,.,.,.,6,0.77,-0.1,.,-3.5
COC(=O)c1ccc(CSc2ncnc3c2nnn3-c2ccc(OC)cc2)o1,-10,.,.,.,.,3,0.78,-16,.,1.3
COc1ccc(N(C(=O)CS(=O)CC(=O)Nc2ccc(F)cc2)C(C(=O)NC2CCCCC2)c2cccs2)cc1 (centres undefined),5,i,5,9,2.1,-14,0.71,-1.2,0.2,4.4
CCOC(=O)C1=C(NC(=S)NC(=O)c2ccccc2)c2ccccc2CC1(C)C,-5,.,.,.,.,2,0.7,1.5,.,0.3
COc1ccc(CCN2CC(O)=C(c3nc(C)cs3)C2=N)cc1OC,7,.,.,.,.,2,0.7,0.0,.,2.2
Cn1c(CCN2CCCCC2)nc2cc(NC(=O)COc3ccc([N+](=O)[O-])cc3)ccc21,-3,i,-4,-4,21,26,0.69,0.5,0.1,4.0
CN(CCc1ccccn1)C(=O)Nc1ccc(F)cc1,-9,.,.,.,.,-6,0.72,-0.4,.,-2.0
O=C(OCc1cc([N+](=O)[O-])cc2c1OCOC2)c1ccc2ccccc2n1,-6,i,6,14,-7.4,-6,0.7,-0.2,-1.6,4.8
CC(=O)Nc1ccc(C(=O)OCc2ccc(Cl)c(Cl)c2)cc1,-9,.,.,.,.,1,0.68,-0.7,.,2.2
COc1ccccc1NC(=O)CN1C(=O)NC(C)(C)C1=O,-1,.,.,.,.,-5,0.74,-1.2,.,3.8
Cc1cccc(CN2CCN(CC(=O)NCc3ccc(F)cc3)C2=O)c1,-3,i,1,-1,-8.5,-3,0.75,1.1,-42,7.2
Cc1c(S(=O)(=O)Nc2ccc(Oc3ccccc3)cc2)c(=O)n(C)c(=O)n1C,-4,i,-2,-10,2.8,2,0.72,-0.7,0.8,1.7
O=C(COC(=O)c1cc(=O)[nH]c2ccccc12)NCc1ccc(F)cc1,-2,i,1,4,1.5,.,0.67,-0.4,-1.3,-25
Cc1ccc(-c2cc(C(=O)NN)n[nH]2)o1,-2,i,.,.,.,-22,0.63,-0.7,-4.7,-0.1
